# miR-21 reporter: raises the signal of a miR-21 reporter; HeLa miR-21 FLuc reporter, luciferase, 48 h; Potency, µM (highest dose often 38.3 µM), for the others: at the highest dose reporter change, positive = more light; 340,000 tested, under 10 active; AID 2288; active = well fitted rising curve with a large enough effect; inconclusive = small, poorly fitted or top-dose-only effect; inactive = no such curve, though single readings can be large or run the other way;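 further: % of control where 0% means no effect; miR-21 action dims this reporter so a rising signal means less miR-21 action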
#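 HeLa cells endogenously expressing miR-21, stably carrying CMV-driven firefly luciferase with a downstream miR-21 binding site, 2000 cells/well. Titrations up to approximately 40 uM, 48 hours; luciferase luminescence read.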
# * hit, by the source's call; ? = inconclusive; [ ] = another dose, or the depositor's remark. This is a subset; rates above refer to the full screens.
SMILES,miR-21 reporter
CCOc1ccc(NC(=O)NC(CC)Cn2nnc3ccccc3c2=O)cc1 (stereo not given),1%
Cc1nc2nc(C(F)(F)F)[nH]n2c(=O)c1Cc1ccccc1,0%
Nc1nonc1-c1nc2ccccc2n1Cc1cccc(Cl)c1,17%
CC1CCC(NC(=O)c2ccc3c(c2)N(Cc2ccccc2)C(=O)c2ccccc2S3=O)CC1 (stereo not given),-7%
Cc1cccc2sc(N(CCCN(C)C)C(=O)COc3ccccc3)nc12,1%
Cc1ccc(-c2noc(CCC(=O)Nc3ccc(F)cc3Cl)n2)cc1,-1%
CCOc1ccc(NS(=O)(=O)c2ccc3c(c2)CCCN3C(=O)C2CCC2)cc1,9%
Cc1ccc2oc(-c3cc(NC(=O)c4oc5ccccc5c4C)ccc3Cl)nc2c1,-3%
CCOC(=O)c1cccc(Nc2ccc3cc(S(=O)(=O)N4CCCCC4)ccc3n2)c1,23%
Cc1ccc(-c2noc(-c3ccc(N4CCOCC4)c([N+](=O)[O-])c3)n2)cc1,-15%
COc1ccc(CNC(=O)C(=O)NCC(c2ccco2)S(=O)(=O)c2ccc(C)cc2)cc1 (stereo not given),5%
Cc1ccc(S(=O)(=O)c2cnc(SCC(=O)Nc3ccc4c(c3)OCCO4)[nH]c2=O)cc1C,1%
CCc1ccc2oc(-c3cc(NC(=O)c4cccnc4)cc(C)c3O)nc2c1,-30%
CCOC(=O)Cn1c(=O)oc2cc(S(=O)(=O)N3CCN(c4cc(C)ccc4C)CC3)ccc21,-2%
CC1=C(C(N)=O)C(c2ccccc2F)n2nc(-c3ccc(Cl)cc3)nc2N1 (stereo not given),-14%
Cc1ccc2nc(-c3ccc(O)cc3)c(Nc3ccc4c(c3)OCO4)n2c1,-3%
Cc1ccc(C)c(Cn2c(=O)c3c(nc4n3CCN4c3ccccc3)n(C)c2=O)c1,-3%
COC(=O)C1CCCCN1C(=O)c1cc(COc2cccc3cnccc23)on1 (stereo not given),25%
COc1cccc(NC(=O)Cn2cc(S(=O)(=O)N3CCCC3)c(S(=O)(=O)N3CCCC3)c2)c1,-4%
COc1ccc2c(c1)CCc1c(C(=O)Nc3ccc(C#N)cc3)noc1-2,-1%
COc1cccc(C2C(=O)N(C3CCCCC3)CC(=O)N2CCc2ccc(OC)c(OC)c2)c1 (stereo not given),-1%
CCOC(=O)C1CCN(C(=O)c2ccc3c(c2)N=C(CC)c2cc(C)ccc2S3)CC1,-6%
COc1cccc(CNc2nc3c(-c4cccc(C)c4)nnn3c3ccccc23)c1,-19%
CCOc1ccc(C(=O)NCCc2sc(-c3ccc(F)cc3)nc2C)cc1,-3%
COc1ccc(-c2nc(CS(=O)CC(=O)NCc3ccc(F)cc3)c(C)o2)cc1OC (stereo not given),4%

# In the list so far, these contain two or more sulfur atoms:
SMILES,miR-21 reporter
Cc1ccc(S(=O)(=O)c2cnc(SCC(=O)Nc3ccc4c(c3)OCCO4)[nH]c2=O)cc1C,1%
COc1cccc(NC(=O)Cn2cc(S(=O)(=O)N3CCCC3)c(S(=O)(=O)N3CCCC3)c2)c1,-4%

# The listing picks up, repeating the 5 entries before the break.
SMILES,miR-21 reporter
COc1cccc(C2C(=O)N(C3CCCCC3)CC(=O)N2CCc2ccc(OC)c(OC)c2)c1 (stereo not given),-1%
CCOC(=O)C1CCN(C(=O)c2ccc3c(c2)N=C(CC)c2cc(C)ccc2S3)CC1,-6%
COc1cccc(CNc2nc3c(-c4cccc(C)c4)nnn3c3ccccc23)c1,-19%
CCOc1ccc(C(=O)NCCc2sc(-c3ccc(F)cc3)nc2C)cc1,-3%
COc1ccc(-c2nc(CS(=O)CC(=O)NCc3ccc(F)cc3)c(C)o2)cc1OC (stereo not given),4%
Nc1nc(Nc2cccc(C(F)(F)F)c2)sc1C(=O)c1ccccc1,-4%
CCN1c2ccccc2-c2nc(SCC(=O)Nc3cccc(C)c3C)ncc2S1(=O)=O,13%
CSc1nnc(NC(=O)Cc2coc3cc(C)ccc23)s1,-33%
CC(=O)c1c(C)oc2ccc(N(C(=O)c3ccncc3)S(=O)(=O)c3ccc(C)cc3C)cc12,?
CCc1ccc(NC(=O)CSc2nc3ccccc3nc2Cc2ccc(C)cc2)cc1,-1%
CCN1C(=O)c2ccccc2S(=O)c2ccc(C(=O)N3CCN(c4ccc(F)cc4)CC3)cc21 (stereo not given),3%
COc1ccc2sc(N(Cc3cccnc3)C(=O)C3COc4ccccc4O3)nc2c1 (stereo not given),-14%
O=C(NC1CCCCC1)c1ccc(Cn2c(SCc3ccc(F)cc3)nc3cccnc32)cc1,-3%
Cc1cccc(NC(=O)Nc2nnc(N3CCCC3)s2)c1,?
Cc1cccc(C)c1NC(=O)C(=O)NCC(c1ccc2c(c1)OCO2)N1CCOCC1 (stereo not given),4%
O=S(=O)(c1ccc(Cl)cc1)c1nc(-c2cccs2)oc1N1CCCCC1,-2%
CCOCN(C(=O)Cn1c(CC(C)C)nc2ccccc21)c1c(C)cccc1CC,0%
COc1cc2c(cc1OC)C(COc1ccc(F)cc1)N(C(=O)C(C)C)CC2 (stereo not given),-4%
COc1ccc2c(C)c(CCC(=O)NCc3ccccc3Cl)c(=O)oc2c1C,3%
Cc1nc2nc(CNC(=O)c3cccc(F)c3)nn2c(C)c1CCC(=O)Nc1cccc(Cl)c1,-7%
Cc1cccc(CCNC(=O)c2cc3c(=O)[nH]c4ccc(C)cc4c3s2)c1,0%
Cc1cc(C)c(C(=O)Nc2ccccc2)c(SCC(=O)Nc2ccc(Br)cc2C)n1,-2%
COc1cccc(/C=C(\C#N)c2nc3ccc(C)cc3[nH]2)c1,4%
CCOC(=O)c1cccc(NC(=O)C2CCCN(S(=O)(=O)c3cc(Br)cc4c3N(C(=O)CC)CC4)C2)c1 (stereo not given),5%
COc1ccccc1OCC(=O)N(Cc1cccs1)C1CCS(=O)(=O)C1 (stereo not given),-1%
Cc1cc2n(n1)CCCN2C(=O)Nc1ccc(F)c(Cl)c1,-8%
Cc1ccc(NC(=O)c2ccc3nc(Cc4ccccc4)oc3c2)cc1F,0%
Cc1cccc(N2CCN(C(=O)c3c4c(nc5ccccc35)C(=O)N(C3CCCCC3)C4)CC2)c1C,-3%
COc1ccccc1N1CCN(c2nc3c(S(=O)(=O)c4ccccc4)nnn3c3ccc(Cl)cc23)CC1,1%
COc1ccc(SCc2cc(=O)c3ccc(C)c(C)c3[nH]2)cc1,2%

# Overlap with the part before: 3 compounds; new compounds follow.
SMILES,miR-21 reporter
Cc1cccc(N2CCN(C(=O)c3c4c(nc5ccccc35)C(=O)N(C3CCCCC3)C4)CC2)c1C,-3%
COc1ccccc1N1CCN(c2nc3c(S(=O)(=O)c4ccccc4)nnn3c3ccc(Cl)cc23)CC1,1%
COc1ccc(SCc2cc(=O)c3ccc(C)c(C)c3[nH]2)cc1,2%
Cc1ccc(-c2nc(SCCOc3ccccc3C)n3[nH]c(=O)cc3n2)cc1,-44%
Cc1ccc(N2C(=O)CSC23C(=O)N(CC(=O)Nc2ccc(C)cc2C)c2ccccc23)cc1 (stereo not given),7%
CCCCN(CC)CCCNC(=O)c1ccc2c(c1)NC(=O)CN2C,-8%
O=C(COc1ccc(Cl)cc1)Nc1ccccc1C(=O)OCc1cc(=O)n2ccsc2n1,-1%
CCOc1ccccc1CNC(=O)c1ccc2c(c1)nc1n2CCC(C)C1 (stereo not given),-1%
Cc1ccc2c(c1)-c1c(cnn1CC(=O)N1CCN(c3cc(C)ccc3C)CC1)CO2,-1%
CN(C)c1ccc(C(CNS(=O)(=O)c2ccc(F)cc2)N2CCc3ccccc32)cc1 (stereo not given),-5%
COc1cccc(-c2nc(SCC(=O)Nc3ccc4c(c3)OCO4)c(-c3ccccc3)[nH]2)c1,?
O=C(CC1C(=O)N(c2ccccc2)C(=O)N1CCc1cccs1)Nc1ccc(F)cc1 (stereo not given),4%
COC(=O)c1ccccc1NC(=O)Cn1nc(C(F)(F)F)c2c1CCCC2,10%
CC(C)NC(=O)c1sc2ncccc2c1-n1cccc1,-16%
Cc1ccc(CCNC(=O)c2cc3ccccn3n2)cc1,-38%
CCOc1ccc(C(=O)c2cn(CC(=O)Nc3ccc(C)c(Cl)c3)c3ccc(OCC)cc3c2=O)cc1,0%
COc1ccc(N2CC(NC(=O)c3ccco3)CC2=O)cc1 (stereo not given),-1%
O=C(CSc1cn(CC(=O)N2CCCCC2)c2ccccc12)NCc1ccccc1,9%
COc1cccc(N2CCN(C(=O)c3cnn(-c4ccc(C)cc4C)c3C3CCN(C(=O)OC(C)(C)C)CC3)CC2)c1,26%
COC(=O)c1ccc(NS(=O)(=O)c2ccc(-n3cccn3)cc2)cc1,-7%
Cc1ccc(OCCCCn2nnc3sc4c(c3c2=O)CCC(C)C4)cc1 (stereo not given),7%
CCOc1ccc(-c2cc(C(=O)N3CCN(c4cccc(C)c4)C(C)C3)c3ccccc3n2)cc1 (stereo not given),-4%
CCCN1C(=O)c2[nH]nc(-c3ccccc3)c2C1c1cccc(O)c1 (stereo not given),-1%
Cc1ccc(N2CC(NC(=O)c3ccc(S(=O)(=O)N(C)C)cc3)CC2=O)cc1C (stereo not given),0%
COC(=O)c1ccc(-n2nnc(-c3nsc(NC(=O)c4ccc(Cl)cc4)n3)c2C)cc1,-15%
CCOc1cccc(NC(=O)C2CC(=O)N(C)C(=Nc3ccc(OC)cc3)S2)c1 (stereo not given),4%
O=C(NCC(c1cccnc1)N1CCN(c2ccccc2F)CC1)c1ccc(F)cc1 (stereo not given),6%
CCOc1cc2[nH]c(=O)n(CCCC(=O)N3CCN(c4ccc(OC)cc4)CC3)c(=O)c2cc1OCC,2%
SMILES,miR-21 reporter
COc1ccc(-c2nc(CSCC(=O)NCCc3ccc(C)cc3)c(C)o2)cc1OC,-15%
CCCN(CCC)CCCNC(=O)c1cc2c(-c3ccc(Cl)cc3)nn(C)c2s1,?
O=C1OC2(CCCCC2)CC2=C1C1O[C@](c3ccsc3)(Cc3ccccc31)O2,-6%[7.66 µM]
Cc1nn(CC(=O)N2CCN(c3ccccc3)CC2)c(=O)c2cc3sccc3n12,-1%
CC(C)(C)c1ccc(OCCOCCn2c(-c3ccc(Cl)cc3)nc3ccccc3c2=O)cc1,-1%
Cc1cccc(CCNC(=O)C2CCN(c3nc4ccccc4nc3C(F)(F)F)CC2)c1,0%
CC1CCN(S(=O)(=O)c2ccc3c(c2)N(CC(=O)N2CCN(c4ccc(Cl)cc4)CC2)C(=O)CO3)CC1,0%
CCOC(=O)c1ccccc1NC(=O)CN1CCCN(Cc2cccc(Cl)c2)S1(=O)=O,-7%
CCOc1ccc(NC(=O)c2ccc(-c3nc(COc4ccccc4)c(C)o3)cc2)cc1,5%
Cc1cccc(N2CCN(c3ncnc4onc(C)c34)CC2C)c1 (stereo not given),?
COC(=O)CC1Oc2ccc(Cl)cc2-n2cc(-c3ccccc3)nc21 (stereo not given),-10%
Cc1cccc2sc(N(CCN(C)C)C(=O)c3ccc4c(c3)OCCO4)nc12,-3%
Cn1c(=O)c2cc(C(=O)Nc3cccc(C#N)c3)sc2c2ccccc21,-11%
COc1ccc(Br)cc1CNC(=O)c1ccc(-n2c(C)cc3c2CCC(C)C3)cc1 (stereo not given),-8%
Cn1c(NCCN)nc2c1c(=O)n(Cc1ccccc1)c(=O)n2C,-1%
CC(C)OCCCn1c(SCC(=O)Nc2ccc(F)cc2)nc2c(sc3ccccc32)c1=O,8%
O=C(NCCc1ccc(Cl)cc1)c1ccc2c(c1)N(Cc1ccc(F)cc1)C(=O)CS2,?
COc1ccc(CNC(=O)c2ccc3nc(C(C)C)oc3c2)cc1OC,5%
Cc1ccc(-n2nc3c(=O)n(CC(=O)NCC(C)c4ccccc4)nc(C)c3c2C)cc1 (stereo not given),21%
CCOc1ccc(-n2cc(-c3ccccc3)c3c(NC4CCCCC4)ncnc32)cc1,0%
Cc1ccc2onc(CC(=O)N3CCN(c4cccc(C)c4C)CC3)c2c1,-14%
Cc1ccc(Sc2ccc(N3CCCC(C(=O)Nc4ccc(F)cc4F)C3)nn2)cc1 (stereo not given),0%
CN(C)S(=O)(=O)c1ccc(C(=O)NC2CC(=O)N(c3ccc4c(c3)OCCO4)C2)cc1 (stereo not given),1%
Cc1ccc(Sc2c(C(=O)NCc3cccc(F)c3)[nH]c3ccccc23)cc1,-15%
Cc1c2cnn(CC(=O)N3CCN(c4ccccc4)CC3)c(=O)c2c(C)n1Cc1ccc(F)cc1,1%
SMILES,miR-21 reporter
CCOC(=O)c1c(NC(=O)CCCOc2ccc(C(C)(C)C)cc2)sc2c1CCCC2,1%
CCOc1cccc(CC(=O)NCc2ccc3c(c2)CCN3C(=O)c2ccc(F)cc2)c1OCC,15%
Cc1cc(C)n2c(Nc3c(C)cccc3C)c(-c3ccsc3)nc2n1,4%
Cc1ccc(C)c(NC(=O)CN(C)S(=O)(=O)c2cccc3nsnc23)c1,-2%
CC(C)NC(=O)C1CCC(Cn2c(=O)c3sccc3n(CC(=O)N3CCCC3)c2=O)CC1 (stereo not given),0%
Cc1ccc2c(c1)c(=O)c1ccccc1n2CCCC(=O)Nc1ccc(Cl)c(Cl)c1,1%
Cc1ccc(CNC(=O)CCN2C(=O)COc3ccc(C)cc32)cc1,-9%
CCC(=O)N1CCc2cc(Br)cc(S(=O)(=O)N3CCCC(C(=O)Nc4ccc(OC)cc4OC)C3)c21 (stereo not given),-4%
CCOc1ccc(C(=O)Nc2ccc(-c3cc4ccccc4oc3=O)cc2)cc1Br,-3%
CCCN1CCN(c2nnc(-n3cccc3C(=O)Nc3ccccc3C(F)(F)F)s2)CC1,-24%

# Molecules listed so far that have a tert-butyl group:
SMILES,miR-21 reporter
COc1cccc(N2CCN(C(=O)c3cnn(-c4ccc(C)cc4C)c3C3CCN(C(=O)OC(C)(C)C)CC3)CC2)c1,26%
CC(C)(C)c1ccc(OCCOCCn2c(-c3ccc(Cl)cc3)nc3ccccc3c2=O)cc1,-1%
CCOC(=O)c1c(NC(=O)CCCOc2ccc(C(C)(C)C)cc2)sc2c1CCCC2,1%

# High-throughput results: PubChem BioAssay, National Center for Advancing Translational Sciences (NCATS)
